# Bioassay records as filed in PubChem BioAssay.
# HSD17B inh – qHTS Assay for Inhibitors of HSD17B4, hydroxysteroid (17-beta) dehydrogenase 4; Potency, µM (highest dose often 57.1 µM), for inactives: at the highest dose activity change, negative = inhibition, usual class: inhibitors; hit rate 7.6% among 75,000; AID 893, 2007; 3-hydroxyacyl-CoA dehydrogenase type-2 (Homo sapiens), Q99714; recombinant HSD17B10, NADH fluorescence kinetic; many of its hits are not listed in these tables; active = well fitted inhibition curve with a large enough effect; inconclusive = small, poorly fitted or top-dose-only effect; inactive = no such curve, though single readings can be large or run the other way;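 note: the protocol describes HADH2 (HSD17B10) and not the HSD17B4 of the title; nearly all actives have a fitted effect of over 70% in size; most hits overshoot -100% by far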
#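 Activity followed as NADH fluorescence increase (ex 360, em 450 nm) every 30 seconds for 4 min, using final 90 uM beta-hydroxybutyryl CoA and 1 mM NAD+. Recombinant His-tagged enzyme, 20 nM, pH 9.0 Tris buffer, 15 min compound preincubation.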
# Numbers without * were called inactive; ? = inconclusive; & = joins results of further samples; [ ] = dose if it differs, or a comment. % is set by controls: 0 for no effect and ±100 for the full control effect; potency is the fitted concentration of half-maximal effect. Not all compounds are listed; rates above refer to the full screens.
Structure,HSD17B inh
Cc1noc(C)c1C(=O)OCC(=O)Nc1ccccc1C(=O)NC(C)c1ccccc1 (stereo unspecified),-18%
Nc1ccc(N2CCOCC2)c(Cl)c1,10%
Cn1c(=O)c2c(nc(NCCc3ccccc3)n2CC(=O)NCCc2ccccc2)n(C)c1=O,?
CCOc1ccc(NC(=O)Nc2ccc3nccnc3c2)cc1,-9%
COc1ccc(N=C2SCC(=O)N2c2ccc(OC)cc2)cc1,-5%
CCn1c(=O)cc(SCC(=O)NCc2cccnc2)c2ccccc21,?
COC(=O)[C@@H]1C[C@@]2(O)[C@H](O)[C@H](O)[C@H](O)C[C@H]2N1Cc1cccc2ccccc12,13%
COCCn1nnnc1C(C(C)C)N(Cc1cccnc1)Cc1cc2cc(OC)ccc2[nH]c1=O (stereo unspecified),25µM*
CCCSC1=N/C(=C\C=C\c2ccco2)C(=O)S1,0.79µM*
NCCCCCc1nnc(SCC(=O)Nc2cccc(Cl)c2)o1,0%
COc1cccc(-n2c(Cc3cc(=O)[nH]c(=O)[nH]3)nnc2SCc2cccnc2)c1,-1%
COc1ccc(NC(=O)Cn2nc(C(F)(F)F)c3c2CCCC3)c(OC)c1,2%
CN(C)S(=O)(=O)c1cccc(C(=O)NCc2ccco2)c1,?
CC1CCCN(S(=O)(=O)c2ccc(S(=O)(=O)N3CCCN(Cc4ccccc4)C3)cc2)C1 (stereo unspecified),-8%
CCOC(=O)C(NC(=O)c1ccc(OC)cc1)(N1CCOCC1)C(F)(F)F (stereo unspecified),3%
N#Cc1ccc(C23CC4(C2)[C@H](CN(CC2CCCCC2)[C@@H]4c2ccccc2)C3c2ccc(Cl)nc2)cc1 (stereo partly specified),7%
N#CCCN1CCN(S(=O)(=O)c2ccc(S(=O)(=O)N3CCCC3)cc2)CC1,-1%
CCOC(=O)CSc1nc2c(c(=O)[nH]c(=O)n2C)n1CCc1ccccc1,16%
CCCn1nnc(NC(=O)c2ccco2)n1,7%
Cc1cc(=O)oc2cc(OCC(=O)N3CCc4ccccc4C3)ccc12,25µM*
CCN(CCCNC(=O)c1c(C)cc(=O)oc1C)c1cccc(C)c1,4%
CC(C)c1ccc(Cn2ccc3c4c(N)nc(NC5CC5)nc4ccc32)cc1,?
Cc1cnc(CNc2ncnc3ccc(-c4c(C)noc4C)cc23)cn1,-4%
S=C=Nc1cccc(NC(=S)NCCCCNC(=S)Nc2cccc(N=C=S)c2)c1,1%
Cn1ccnc1SCc1cn2cc(Br)ccc2n1,7%

# Further compounds follow:
Structure,HSD17B inh
CC1CCCC(C)N1C(=O)COC(=O)c1ccc2c(c1)OCO2 (stereo unspecified),-7%
N#Cc1c(N)nc2c(c1-c1ccncc1)CCCCC2,?
COc1ccc(N2C(=O)c3ccccc3NC23CCCCC3)cc1,32µM*
CC1Oc2ccccc2N(CC(=O)NCc2cccs2)C1=O (stereo unspecified),6%
Cc1cc(C(=O)CSc2nc(N)cc(N)n2)c(C)n1CCc1ccc(F)cc1,-13%
CCOc1ncccc1C(=O)OCC(=O)c1c(N)n(C)c(=O)n(C)c1=O,17%
COC(=O)/C=C1\NCCSC1=O,-5%
O=C(Nc1nc2c(s1)CCCC2)Oc1ccccc1,1%
Cc1cccc(OCc2nnc(SCn3nnc4ccccc4c3=O)o2)c1,-9%
O=C(Nc1nccs1)c1ccc2nccnc2c1,-11%
O=C(c1ccc2c(=O)n(Cc3ccco3)c(=S)[nH]c2c1)N1CCN(c2ccccc2)CC1,-5%
CCOc1ccccc1C(=O)Nc1cc(Cl)ccc1O,-15%
Nc1nc(-c2ccco2)nn1C(=O)c1cccnc1,1%
CNC(=O)C1(C)C=CCN1C(=O)c1ccccc1 (stereo unspecified),5%
CCOC(=O)C(C)Oc1ccccc1C1NC(=O)NC(C)=C1C(=O)Nc1ccc(C)c(C)c1 (stereo unspecified),3%
CC12C(=O)N(c3ccccc3C(=O)O)C(=O)C1C1C=CC2C1 (stereo unspecified),-8%
COc1ccc(C2=CC(c3sccc3C)n3nnnc3N2)cc1 (stereo unspecified),?
Cc1c(OCc2nn[nH]n2)ccc2c(-c3ccccc3)cc(=O)oc12,?
COC(=O)Nc1ccc2[nH]cc(CCNC(C)=O)c2c1,-7%
CC(=O)N1CC=CC1(C)C(=O)NCC1CC1 (stereo unspecified),10%
CCOc1ccc(N(CC(=O)Nc2ccc(OC)cc2)S(C)(=O)=O)cc1,12%
O=C(CSc1nc(-c2ccco2)cc(C(F)(F)F)n1)N1CCCc2ccccc21,3%
CCC(C)NS(=O)(=O)c1ccc(S(=O)(=O)Nc2cc3c(cc2C(C)=O)OCO3)cc1 (stereo unspecified),6%
CCOCCCNC(=O)C(NC(=O)C1CCC(=O)N1)c1ccc(C)cc1 (stereo unspecified),10%
O=C(CCN1C(=O)c2ccccc2C1=O)N1CCN(c2ccccc2)CC1,13%

# Three of the compounds above, with each value named.
CCC(C)NS(=O)(=O)c1ccc(S(=O)(=O)Nc2cc3c(cc2C(C)=O)OCO3)cc1 (stereo unspecified)
- HSD17B inh = 6%

CCOCCCNC(=O)C(NC(=O)C1CCC(=O)N1)c1ccc(C)cc1 (stereo unspecified)
- HSD17B inh = 10%

O=C(CCN1C(=O)c2ccccc2C1=O)N1CCN(c2ccccc2)CC1
- HSD17B inh = 13%

# (further entries)
Structure,HSD17B inh
O=C(NCc1cccnc1)C1CC(=O)N(C2CCCCC2)C1 (stereo unspecified),13%
CC(=O)OCC1OC(C#Cc2ccccc2Cl)C=CC1OC(C)=O (stereo unspecified),-7%[11.4 µM]
O=C(Cn1nnc(-c2ccc(N3CCOCC3)cc2)n1)OC1CCCCC1,3%
Cc1cccc(N2CCN(c3cccc(C)c3)C2c2cccnc2)c1,6%
CCC(=O)N1c2ccccc2-c2nnc(SC)nc2OC1c1ccc(OC)c(OC)c1 (stereo unspecified),3%
c1ccc2sc(Cc3nnc4n3CCCCC4)nc2c1,3%
CCOC(=O)N1CCN(C(=O)c2ccc(N(C)S(C)(=O)=O)cc2)CC1,1%
CC(=O)OC1=C(C#N)Cn2ccc3cccc1c32,-2%
CN(Cc1cccs1)CC(O)COCc1ccco1 (stereo unspecified),8%
CCCNS(=O)(=O)c1ccc(OCC(=O)NCc2ccc3c(c2)OCO3)cc1,1%
O=c1oc(Cl)c(Cl)c2ccccc12,-9%
Cc1cc(-n2c(C)cc(C(=O)CN3C(=O)NC4(CCCCCC4)C3=O)c2C)no1,32µM*
Cc1sc(NC(=O)CSc2nnc3scc(-c4ccccc4)n23)c(C#N)c1C,-5%
COc1ccc(OC[C@@H](CO)OC)cc1,7%[11.4 µM]
c1ccc2c(CSCc3cccc4ccccc34)cccc2c1,-4%[11.4 µM]
COc1ccc(-n2c(=O)[nH]cc(C(=O)N3CCCc4ccccc43)c2=O)cc1,0%
COc1ccc(OCC(=O)Nc2ccc(S(=O)(=O)N3CCOCC3)cc2)cc1,-1%
Cc1ccc(SC(C)C(=O)NCC(C)C)cc1 (stereo unspecified),-3%
Cc1cccc(CNc2ccnc(-c3ccc(N(C)C)cc3)n2)c1,25µM*
COC(=O)N1CCC2(CC1)CN(c1ccccn1)C2,32µM*
Cc1noc(C)c1COC(=O)CCc1ccc(S(=O)(=O)N2CCCCC2)cc1,-10%
CCOC(=O)CCP(=O)(O)C(O)c1ccc(OC)cc1 (stereo unspecified),-6%
C=C1C(=O)O[C@@H]2[C@@H]1CC/C(C)=C\CC[C@@]1(C)O[C@H]21,-3%[25.6 µM]
Cc1cccc(Cn2cnc3c(nnn3Cc3ccc(Cl)cc3)c2=O)c1,4%
Fc1ccc(C2CC(c3ccc(F)cc3)n3ncnc3N2)cc1 (stereo unspecified),-1%

# Additional structures:
smiles,HSD17B inh
Cc1cc(N2CCC(C(=O)NCC3CC3)CC2)nc(-c2ccccc2)n1,0%
CC(C)[C@H](NC(=O)C1(c2ccccc2)CCN(C(=O)OC(C)(C)C)CC1)C(=O)O,6%
CN(C)c1ccc(/C=C/c2ccncc2)cc1,-7%
CCN(CC)S(=O)(=O)c1cc(C)c(C)cc1Br,4%
Cc1onc(-c2ccccc2)c1C(=O)N1CCN(C(=O)c2ccco2)CC1,3%
COc1ccc(S(=O)(=O)N2CCC(C(=O)NCc3cccc(OC)c3)CC2)cc1,-9%
COc1ccc(Cl)cc1N(CC(=O)N1CCN(Cc2ccccc2)CC1)S(C)(=O)=O,2%
CC(C)(CNC(=O)C1CCCC1)CNC(=O)C1CCCC1,-12%
O=C(Cn1cnc2c(nnn2-c2ccc(F)cc2)c1=O)NCC1CCCO1 (stereo unspecified),-5%
Cc1ccc(OCCC(=O)OCC(=O)C(C)(C)C)cc1,-1%
Cc1csc(NC(=O)CSc2nnc(-c3ccoc3C)n2CCc2ccccc2)n1,7%
C[C@H](C(=O)c1ccccc1)[C@@H](c1ccccc1)N1CCOCC1,1%[11.4 µM]
CCOC(=O)C1=C(C)NC(=O)NC1c1ccc(OCC(=O)N2CCCCC2)cc1 (stereo unspecified),1%
O=C(C1CCC(N2C(=O)C3CC=CCC3C2=O)CC1)N1CCCCC1 (stereo unspecified),3%
COCCCn1c(=S)[nH]c2ncccc2c1=O,-9%
Cc1cccc2cc(COC(=O)C3CCCO3)c(=O)[nH]c12 (stereo unspecified),?
COC(=O)c1cc2c(ccn2-c2ccc(F)cc2)n1CC(=O)N1CCN(C(=O)c2ccco2)CC1,25µM*
Cc1ccc(Cl)cc1,0%
CN(C)c1ccc(C2N(C(=O)N3CCOCC3)CCN2S(=O)(=O)c2ccccc2)cc1 (stereo unspecified),-2%
CC(OC(=O)C1CCCO1)C(=O)NC1CCCC1 (stereo unspecified),-1%
Cc1ccc2c(C)c(C(=O)Nc3c(C)n(C)n(-c4ccccc4)c3=O)oc2c1,1%
CCCCOC(=O)c1ccc(NC(C)=O)cc1,5%
Cc1nc2c3c(-c4ccccc4)c(-c4ccccc4)oc3ncn2n1,?
O=C(O)c1cc2cc(Cc3cccnc3)ccc2o1,3%&-6%
COc1ccc(/C=C/N(CCc2ccc(OC)c(OC)c2)C(=O)C(F)(F)F)cc1,-1%[11.4 µM]

# Quoted at random: 5 compounds from above, in no set order.
smiles,HSD17B inh
COc1ccc(Cl)cc1N(CC(=O)N1CCN(Cc2ccccc2)CC1)S(C)(=O)=O,2%
CCCCOC(=O)c1ccc(NC(C)=O)cc1,5%
CC(C)(CNC(=O)C1CCCC1)CNC(=O)C1CCCC1,-12%
O=C(C1CCC(N2C(=O)C3CC=CCC3C2=O)CC1)N1CCCCC1 (stereo unspecified),3%
Cc1csc(NC(=O)CSc2nnc(-c3ccoc3C)n2CCc2ccccc2)n1,7%

# Going on with the list:
smiles,HSD17B inh
O=S(=O)(NCc1ccccn1)c1cccc2cccnc12,-3%
CCOc1ccc(-c2n[nH]c(C)c2-c2ccccc2OC)c(O)c1,?
O=C(NCCCN1CCN(c2ccccc2F)CC1)C1CCCN(S(=O)(=O)c2cnc[nH]2)C1 (stereo unspecified),4%
Cc1coc2cc3oc(=O)c4c(c3cc12)CCC4,32µM*
O=C1C2CC=CCC2C(=O)N1c1n[nH]c(Cc2ccccc2)n1 (stereo unspecified),5%
CCOC(=O)/C=C1\CC(=O)Nc2nonc2N1,-8%
COc1ccc(Cc2nc(-c3ccc(NC(=O)c4cccnc4)cc3)no2)cc1,1%
CCOC(=O)c1[nH]c2ccc(OCC)cc2c1NC(=O)CN1CCCC(C)C1 (stereo unspecified),32µM*
Cc1cc(NC(=O)CSc2nnc3c(C)cc4cc5c(cc4n23)OCO5)no1,?
CCCn1c(=O)c(C(=O)Nc2c(C)n(C)n(-c3ccccc3)c2=O)c(O)c2ccccc21,12%
Cn1nccc1C(=O)OCC(=O)Nc1nc(-c2ccccc2)cs1,-5%
CC(C)CNS(=O)(=O)c1ccc(CCC(=O)N2CCN(Cc3ccc4c(c3)OCO4)CC2)cc1,4%
CO[C@H]1COC(=O)C/C=C\[C@H](C)[C@@H](OC)COC(=O)C/C=C\[C@@H]1C,6%[11.4 µM]
CCCCN(C)C(=O)Cn1cnc2sc(C)cc2c1=O,5%
Cc1ccc(-c2nc(C#N)c(N3CCCCC3)o2)cc1,32µM*
O=C(CSc1nnc(-c2ccc(Cl)s2)o1)N1CCc2ccccc21,?
O=C(NCC(=O)N(CCc1ccccc1)C(C(=O)NC1CCCC1)c1cccnc1)c1ccco1 (stereo unspecified),-3%
c1ccc(-c2ccc(CN3CCN(c4ncccn4)CC3)cc2)cc1,-3%
Cc1cccc(CNc2ccnc(-c3ccccc3C(F)(F)F)n2)c1,6%
O=C(Nc1ccc(F)cc1F)c1cc2ncc(Br)cn2n1,?
O=C(NCCN1C(=O)C2C3C=CC(C3)C2C1=O)Nc1ccccc1 (stereo unspecified),6%
COc1ccccc1N1CCN(C(=O)c2sc3nc(-c4ccccc4)cn3c2C)CC1,2%
O=C(CCc1ccccc1)Nc1nc2nc(-c3ccccc3)cc(=O)n2[nH]1,-4%
CC(C)C1N=C2c3ccccc3N=C(SCC#N)N2C1=O (stereo unspecified),20µM*
O=C1c2ccccc2NC(c2ccc(Cl)cc2Cl)N1O (stereo unspecified),-21%

# (list continues)
smiles,HSD17B inh
C[C@H](CO)NC(=O)[C@H](C)[C@H]1C[C@]1(C)[C@H](NC(=O)OCc1ccccc1)c1ccccc1,16%
COCCCn1c(-c2ccccc2)nc2ccccc2c1=O,-4%
CC(C)NC(=O)N1CC[C@@]2(CCCN(C(=O)Oc3ccccc3)C2)C1,0%
CC1(C)CC[C@]2(C(=O)O)CC[C@]3(C)C(=CCC4[C@@]5(C)CC[C@H](O)C(C)(C)[C@@H]5CC[C@]43C)C2C1 (stereo partly specified),22%
